Rce1 inh = yeast Ras-converting enzyme inhibition. yeast membranes, quenched prenylated peptide cleavage fluorescence. actives 0.27% (n = 290,000). Q03530. calls only;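 active means fall in fluorescence gain of 50% or more versus controls, with final raw signal at or below 3038400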;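 further: plate controls were neutral control wells for no effect and wells lacking membranes for full effect; tested at 10 µM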
CSC inhib = cancer stem cell inhibition; cancer stem cell-like cells viability, luminescence; inhibition, % at 7.5 µM; actives 1.1% (n = 300,000); AID 2717;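 active means mean at 75% or more and at least half the replicates too; tested in HMLE shEcad cells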;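 further: 0% = median of negative and 100% = median of positive control wells; the first replicate is given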
Env fusion inh = blocks HIV Env-driven cell-cell fusion | HeLa-JRFL Env/CEM21 cell fusion, luciferase | inhibition, % at 12.3 µM | actives 1.1% (n = 360,000) | AID 651610;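 active means mean replicate inhibition score of at least 50 and every replicate individually at or above 50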;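 further: 0% = plate neutral controls and 100% = maraviroc near 300 nM; one replicate is shown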
PABP polyA inh = PABP-poly(A) binding inhibition; P11940; PABP-poly(A) RNA binding, fluorescence polarization; inhibition, % at 35 µM; actives 1% (n = 290,000); AID 2014;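 active means 50% or more with normal probe brightness, or confirmed in later tests; about a fifth of its hits are not listed in these tables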;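 further: calls also rest on retests at 20 µM and on dose response follow-up; controls were probe without protein and protein plus probe with vehicle; some compounds called inactive have numbers as strong as hits; many hits fall short of the cut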
Target sequence (P11940 whole entry, looked up): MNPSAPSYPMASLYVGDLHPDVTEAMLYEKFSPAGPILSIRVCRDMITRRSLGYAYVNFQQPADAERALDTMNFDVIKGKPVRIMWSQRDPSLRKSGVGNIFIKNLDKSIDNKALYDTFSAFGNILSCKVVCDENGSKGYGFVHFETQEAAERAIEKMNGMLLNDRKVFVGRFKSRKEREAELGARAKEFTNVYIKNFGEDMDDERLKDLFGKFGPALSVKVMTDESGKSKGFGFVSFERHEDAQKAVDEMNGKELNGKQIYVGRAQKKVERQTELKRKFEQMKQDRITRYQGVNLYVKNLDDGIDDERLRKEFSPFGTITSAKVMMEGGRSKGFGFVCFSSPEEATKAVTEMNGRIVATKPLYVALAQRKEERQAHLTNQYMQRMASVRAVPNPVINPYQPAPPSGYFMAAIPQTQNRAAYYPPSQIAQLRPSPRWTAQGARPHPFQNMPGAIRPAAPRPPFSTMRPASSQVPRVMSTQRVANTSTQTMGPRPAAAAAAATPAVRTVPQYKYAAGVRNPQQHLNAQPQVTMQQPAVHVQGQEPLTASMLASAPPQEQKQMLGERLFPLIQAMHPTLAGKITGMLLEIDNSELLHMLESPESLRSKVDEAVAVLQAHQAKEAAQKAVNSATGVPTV
eIF4H inh = inhibitors of RNA binding by human eIF4H. Q15056. eIF4H fluorescence polarization binding assay. inhibition, % at 35 µM. actives 0.94% (n = 290,000);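 active means 50% or more with normal probe brightness, or confirmed in later tests; about a fifth of its hits are not listed in these tables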;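 further: calls also rest on retests at 20 µM and on dose response follow-up; 0% = protein and probe with vehicle and 100% = probe without protein; strong numbers were not always called active; many hits fall short of the cut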
MT1-MMP act inh = blocks activation of human MT1-MMP | GFP/RFP ratio change, % at 20 µM | HT1080 RFP-PRO-GFP cells, GFP/RFP ratio fluorescence, overnight; percent of plate control window, DMSO zero | actives 0.061% (n = 360,000) | AID 651647;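 active means GFP/RFP ratio change of at least 30% with cell ATP level not reduced by more than half and red fluorescence within 50% of control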; further: strong numbers were not always called active
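Assay system: HT1080 cells carrying an RFP-PRO-GFP reporter | Dosing: Single dose of 20 µM compound, 1% DMSO final | Incubation: Cells overnight before dosing, compound overnight, 37 °C, 5% CO2 | Evaluation: GFP/RFP fluorescence ratio | Control set: DMSO and RFP-L50D-GFP cell wells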
Yeast UUG start = modulators of start codon recognition fidelity in yeast | S. cerevisiae UUG-firefly luciferase reporter, luminescence/redox ratio | activity score, % at 18.7 µM | actives 0.13% (n = 350,000);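 active means replicate mean at a twofold rise or more, about +100% in these data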;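 further: firefly luciferase made from a UUG start codon reports start codon fidelity; reporter light over untreated wells divided by growth signal over untreated wells; some hits fall short of that in this replicate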
eIF4H inh retest = recorded beside eIF4H inh, whose call it bears; inhibition, %; compound at 20 µM; confirmation average;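 mean of two retest wells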
PABP polyA inh retest = further read-out of PABP polyA inh, marked with its call; inhibition, %; compound at 20 µM; confirmation repeats;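 mean of two retest wells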
MT1-MMP act inh RFP = also measured in MT1-MMP act inh; calls as there; RFP signal change, %; measured here: RFP expression control read;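 0 = vehicle wells; hits needed this value within 50% of zero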
The depositor's hits bear a star; i = inactive; . = no result given.

SMILES	Rce1 inh	CSC inhib	Env fusion inh	PABP polyA inh	eIF4H inh	MT1-MMP act inh	MT1-MMP act inh RFP	Yeast UUG start	others
COc1cccc(N2CC(C(=O)OC(C)C(=O)c3ccccc3)CC2=O)c1 (stereo unspecified)	i	2	-20	6	2	0	3	-4
COCCN(C(=O)CSc1nc2ccccc2c(=O)n1C(C)COC)c1c(N)n(Cc2ccccc2)c(=O)[nH]c1=O (stereo unspecified)	i	-28	-23	-2	-14	-2	1	.
Cc1cc(C)n(CC(=O)NNC(=O)c2cncc(Br)c2)n1	.	-6	-12	.	.	3	2	-23
CCCn1c(=O)c(C(=O)Nc2ncccc2C)c(O)c2ccccc21	i	.	16	-9	7	3	10	.
NC(=O)CC(NC(=O)c1ccc(Br)cc1)c1ccc(N2CCN(c3ccccc3)CC2)c([N+](=O)[O-])c1 (stereo unspecified)	i	-19	8	1	-3	9	-8	2
CC(C)Cc1ccc(-c2cc3nc(NCc4cccc(Cl)c4)ccn3n2)cc1	.	.	-10	.	.	4	-9	-1
Cc1ccccc1C(OCC(O)CN1CCN(CCO)CC1)c1ccccc1 (stereo unspecified)	i	36	-4	-9	5	-3	1	-7
O=S1(=O)N[C@@H](Cc2ccccc2)COc2cc(Br)ccc21	.	.	20	.	.	4	2	5
O=C(c1ccco1)N1CCN(C(=O)c2cc(-c3ccncc3)nc3ccc(Br)cc23)CC1	i	17	.	.	.	-19	3	-7
CCN1CCN(c2ccc(NC(=O)c3ccc([N+](=O)[O-])o3)cc2Cl)CC1	i	.	-435	6	-4	-4	-16	.
COc1ccc(N/C(N)=N/c2nc(CSc3ccc(Cl)cc3)cc(=O)[nH]2)cc1	i	-9	.	-5	-2	5	-1	.
CCOC(=O)Cn1nc(-c2ccccc2)c2cnc3ccc(C)cc3c21	i	-20	26	-7	4	1	-1	-1
O=C1c2ccccc2CCc2ccc(Br)cc21	.	7	-18	.	.	-1	2	-6
O=C(CC(Sc1ccccc1)c1cccs1)c1ccco1 (stereo unspecified)	i	6	-9	-5	-4	-2	-1	-3
CCCCCC(=O)N1C[C@@H](O)[C@H](n2cc(C3CC3)nn2)C[C@@H]1c1ccc(Cl)cc1	.	.	-23	.	.	1	0	1
CCc1cc2c(=O)c(-c3cnn(-c4ccccc4)c3)c(C)oc2cc1OCC(=O)Nc1cccc(C)c1	i	43	-15	-1	-12	3	3	.
CCOC(=O)/C(C#N)=C/c1c(N2CCN(CC)CC2)nc2c(C)cccn2c1=O	i	-13	16	21	4	-5	1	-20
COc1cccc2c(=O)cc(C)n(CC(=O)Nc3ccc(Br)cc3)c12	i	4	10	-8	-10	2	-22	.
Cc1nc2c(ncn2-c2ccccc2)c(=O)n1NC(=O)CN1CCN(C)CC1	i	-3	-15	2	-5	0	3	.
COc1ccc(C(=O)Nc2ccc(C3CC3(Cl)Cl)cc2)cc1 (stereo unspecified)	i	29	-17	-4	8	1	-10	-16
Cn1nc(C(=O)NCc2ccccc2Cl)c2c1-c1ccccc1S(=O)(=O)C2	i	6	-1	.	.	3	4	-14
CC(C)C[C@H](NC(=O)N1CCn2c1nc1ccccc12)C(=O)N[C@@H](Cc1ccccc1)C(=O)O	i	6	.	9	-6	-1	-4	-1
COc1cccc(NCc2nnc(SCC(=O)N(C)C3CCS(=O)(=O)C3)n2C2CCCCC2)c1 (stereo unspecified)	i	-3	-1	-5	-17	3	1	-10
CC(=O)c1c(C)[nH]c(C(=O)NCCc2cccc(C)c2)c1C	i	-9	-60	6	-10	-7	-8	-12
COc1ccccc1CNC(=O)CN1C(=O)N(C)C2(CCCCC2)C1=O	.	10	.	.	.	-2	2	-20
COc1ccc(C2C3=C(CCCC3=O)N(CC(=O)O)C3=C2C(=O)CCC3)cc1Cl	i	-10	-43	24	11	-2	1	0
O=C(c1cnccn1)N1CCN(S(=O)(=O)c2ccc3ccccc3c2)CC1	i	-10	.	-2	10	-1	-4	-3
O=C(CSc1ccc2c(c1)OCCO2)NCc1ccccc1	i	-3	7	2	-2	0	1	.
Cc1cccc(N(C)Cc2nnc(-c3cccc(Br)c3)o2)c1	i	10	-44	12	-6	2	-1	4
C#CCNC(=O)C1=C[C@H](C)C[C@H](OCc2ccc(CO)cc2)O1	i	-7	-9	.	.	1	-3	10
CCN(CC)CCNc1cc(C)c(C#N)c2nc3ccccc3n12	i	-9	-8	18	29	-6	0	-13
CCN(CC(=O)Nc1c(F)cccc1F)C(=O)CNC(=O)c1sc2ccccc2c1Cl	.	0	.	.	.	6	-3	-7
c1ccc(COc2ccc(CNn3cnnc3)cc2)cc1	i	-2	.	1	3	0	5	.
C=CCn1c(SCc2ccc(C(=O)OC)cc2)nnc1-c1sc(N)nc1C	i	-8	.	8	-3	0	-1	.
CCOCCCNC(=O)C1CC(=O)N(CCc2ccccc2)C1 (stereo unspecified)	i	-15	7	3	1	0	3	-4
Cc1csc2ncc(C(=O)Nc3ccc4c(c3)OCCO4)c(=O)n12	i	-3	-53	3	-16	1	3	-19
O=C(Nc1ccccc1F)c1cc(S(=O)(=O)N2CCCCC2)cs1	i	5	-7	47	-4	1	-6	-7
COc1ccc(CCNC(=O)C2CCN(S(=O)(=O)c3ccc(OC)cc3)CC2)cc1	i	8	4	-10	0	-3	-4	-1
CCN(CC)CCN1C(=O)c2ccccc2NC1c1cccc(F)c1 (stereo unspecified)	i	-2	17	4	6	2	4	-15
CCN(CC)S(=O)(=O)c1ccc2c(c1)c(=O)c(C(=O)N1CCN(c3ccccc3)CC1)cn2C	i	.	-63	-5	1	3	4	-6
COc1ccccc1NS(=O)(=O)c1cccc(NC(=S)NCCN2CCOCC2)c1	i	8	.	21	2	4	1	.
CC(C)N(C(=O)CSc1nnc(NC(=O)c2ccco2)s1)C(C)C	i	-9	-2	4	-13	5	3	.
O=C(NCc1ccc(Cl)cc1)C(=O)NCC1CCCN1S(=O)(=O)c1cccs1 (stereo unspecified)	i	-4	-7	.	.	-1	-5	4
C/C(=N\NC(=O)CCc1ccccc1)C1C(=O)c2ccccc2C1=O	i	8	-2	-7	14	3	-2	-17
CCc1nn(C(C)C(=O)NC2CCCCCC2)c(=O)c2cc3occc3n12 (stereo unspecified)	i	-16	3	4	-14	7	4	-12
Cc1cc(C)cc(NC(=O)C(Sc2nnc(C)c(=O)[nH]2)c2ccccc2)c1 (stereo unspecified)	i	11	3	-4	-1	1	1	-14
C=CCn1c(=O)c2ccc(C(=O)NCc3ccccc3)cc2n(Cc2ccccc2Cl)c1=O	i	-8	-5	20	-3	-3	-1	.
Cc1ccccc1NC(=O)Cn1nnc(-c2ccc(CN3CCC(C)CC3)cc2)n1	i	16	9	-4	-3	0	2	.
O=C(c1ccccc1)N1CCN(CC(O)Cn2ccc3ccccc32)CC1 (stereo unspecified)	i	-3	1	5	19	.	.	.
c1ccc(Sc2ncnc3c2oc2ccccc23)nc1	i	2	-33	7	-2	-9	-8	-19
CCOC(=O)C1CCCN(c2c(Nc3cccc(C)c3)c(=O)c2=O)C1 (stereo unspecified)	i	-6	0	9	2	1	4	-3
O=[N+]([O-])c1nn(-c2ccc3c(c2)OCCO3)n(O)c1=NC1CCN(Cc2ccccc2)CC1	i	16	-1	-11	-1	-3	-5	11
CC(C)COC(=O)N1CCCCC1c1cc(C(=O)Nc2ccccc2)no1 (stereo unspecified)	.	.	24	.	.	-7	-7	-9
O=C(CSc1nccc(=O)[nH]1)Nc1ccc(N2CCOCC2)c(Cl)c1	i	10	-6	-2	-2	2	7	.
CCOc1ccccc1NC(=O)C(C)SCc1ccccc1 (stereo unspecified)	i	9	-182	4	-11	1	0	-16
CC1=C(C(=O)OCC(C)C)C(c2cccc(F)c2)N2C(=O)C(C)SC2=N1 (stereo unspecified)	i	-7	.	2	6	-28	-20	15
Cc1ccc(-c2cc(C(=O)NC3CCCCC3)no2)cc1	i	26	-8	9	-10	-1	3	-27
CC1CCN(CCCCOc2ccc([N+](=O)[O-])cc2)CC1	i	33	9	-1	7	6	6	.
CCOc1ccc(-c2ccc(SCC(=O)N3CCN(c4ccccc4)CC3)nn2)cc1	i	-4	.	100	-9	.	.	.	eIF4H inh retest=-8;PABP polyA inh retest=2
COc1ccc(CN2CCC(C)(Oc3ccc4c(c3)OCO4)C2)c2ccccc12 (stereo unspecified)	.	.	70*	.	.	0	2	6
Continued:
SMILES	Rce1 inh	CSC inhib	Env fusion inh	PABP polyA inh	eIF4H inh	MT1-MMP act inh	MT1-MMP act inh RFP	Yeast UUG start	others
O=C(O)CC(C(=O)Nc1ccc(Cl)cc1Cl)C1CCCO1 (stereo unspecified)	i	-18	22	-9	-4	2	6	.
Cn1ncc2c(NNC(=O)C3CCCCC3)ncnc21	i	.	-3	-4	2	2	3	.
CCC1CCCCN1C(=O)c1cc2cc(Br)ccc2oc1=O (stereo unspecified)	i	-10	-21	-12	-10	2	6	4
CC1CN(C(=O)c2cccc(COc3ccccc3Cl)c2)CC(C)O1 (stereo unspecified)	i	.	-8	2	7	5	0	.
CCOCCCNC(=S)NNC(=O)CCn1nc(C)c(Br)c1C	i	8	.	13	-4	2	5	-13
CC(=O)N1CCN(C(=O)CC2OC(=O)c3ccccc32)CC1 (stereo unspecified)	i	2	.	-1	5	0	5	-16
Cc1cccc(NS(=O)(=O)c2ccccc2)n1	i	2	-48	-16	8	-5	0	-10
Cc1ccccc1NC(=O)c1ccc(NC(=O)C2CC(=O)OC23CCCCC3)cc1 (stereo unspecified)	i	.	4	1	-5	5	4	.
CC1(C)Cc2nc3sc4c(=O)n(CC(=O)NCc5ccccc5)cnc4c3cc2CO1	i	59	-246	-5	2	1	-11	-13
CCNC(=O)NC(=O)C(C)Sc1nc2ccccc2n1CC(C)C (stereo unspecified)	i	-2	.	9	-10	0	-3	-14
COc1cc(/C=C/C(=O)OCC(=O)NCc2ccco2)cc(OC)c1OC	i	22	9	-4	2	5	8	.
Cc1cc(C)c2c(CC(=O)N3CCCC3)coc2c1	.	-22	-40	-8	7	2	1	-20
Cc1ccc(NC(=O)c2ccc(=O)n(CC(=O)Nc3c(C)cc(C)cc3C)n2)cc1	i	9	5	.	.	5	-2	-13
C/C(=N\OCC(=O)N/N=C/c1ccccc1O)c1cccs1	.	2	-15	-5	0	2	-2	-17
C=C(C)COc1ccc(-c2nc(N)ncc2-c2ccccc2OC)c(O)c1	i	22	11	5	-6	0	-9	.
COc1ccc(C(C(=O)NC2CCCC2)N(C(=O)c2snc(C(N)=O)c2N)c2cc(C)ccc2OC)cc1OC (stereo unspecified)	i	-2	6	6	-7	-5	-5	-6
CCCc1nnc(SCC(=O)N2CCCCC2C)n1CCCOC (stereo unspecified)	.	-9	-61	-2	7	2	-1	.
CCOC(=O)c1sc2nc(NC(=O)C3CCCCC3)sc2c1C	i	-4	-17	1	-2	-5	-4	3

Five successive entries already listed, quoted:
SMILES	Rce1 inh	CSC inhib	Env fusion inh	PABP polyA inh	eIF4H inh	MT1-MMP act inh	MT1-MMP act inh RFP	Yeast UUG start	others
C/C(=N\OCC(=O)N/N=C/c1ccccc1O)c1cccs1	.	2	-15	-5	0	2	-2	-17
C=C(C)COc1ccc(-c2nc(N)ncc2-c2ccccc2OC)c(O)c1	i	22	11	5	-6	0	-9	.
COc1ccc(C(C(=O)NC2CCCC2)N(C(=O)c2snc(C(N)=O)c2N)c2cc(C)ccc2OC)cc1OC (stereo unspecified)	i	-2	6	6	-7	-5	-5	-6
CCCc1nnc(SCC(=O)N2CCCCC2C)n1CCCOC (stereo unspecified)	.	-9	-61	-2	7	2	-1	.
CCOC(=O)c1sc2nc(NC(=O)C3CCCCC3)sc2c1C	i	-4	-17	1	-2	-5	-4	3

This is a subset (hit frequency here may not be typical).
